From PubChem
WNV NS2B-NS3 inh = inhibitors of WNV NS2B-NS3 protease, primary screen, biochemical, fluorogenic substrate | fluorogenic substrate Ex360/Em465; active compounds read low | Genome polyprotein (West Nile virus), P06935 | 0.18% of 65,000 active | z-score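 (tested at a level between 10 and 100 µM)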;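 active means z-score at -3 or under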;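 further: score is relative to mean and spread of the compound wells of a plate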
Target sequence (P06935 1371-1501 limits assumed): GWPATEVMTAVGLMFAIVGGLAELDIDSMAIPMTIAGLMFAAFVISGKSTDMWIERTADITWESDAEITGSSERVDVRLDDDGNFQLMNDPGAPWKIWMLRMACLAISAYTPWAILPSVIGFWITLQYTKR
Target sequence (P06935 1502-1679 limits assumed): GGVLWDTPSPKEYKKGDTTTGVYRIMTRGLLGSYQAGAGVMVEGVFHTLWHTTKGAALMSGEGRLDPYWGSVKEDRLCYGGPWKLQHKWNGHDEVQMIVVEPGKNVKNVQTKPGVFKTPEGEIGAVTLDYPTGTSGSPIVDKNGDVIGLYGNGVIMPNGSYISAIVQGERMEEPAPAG
MT1-MMP promoter = inhibitors of MT1-MMP promoter transcription, cell-based, luciferase reporter, luminescence (AID 618). 0.62% of 87,000 active. MT1-MMP promoter luciferase reporter cells, luminescence. calls from a first round at 10 µM; hits with a dose series show EC50 in µM;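 active means over half of the reporter light lost at 10 µM or EC50 under 50 µM; inactive means the rest and hits that failed the dose series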;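 further: actives suppress MT1-MMP promoter-driven transcription so potencies describe inhibitors; HT1080 fibrosarcoma cells; overnight exposure; toxic or luciferase-blocking compounds were not removed from the actives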
Hsc70 ATP site = Hsc70 inhibitors, probe displacement, primary screen, biochemical, fluorescence polarization (AID 568). displacement, % at 20 µM, or IC50 in µM where a hit was titrated. 83,000 tested, under 10 active. Hsc70 fluorescence polarization, probe displacement; higher % means a stronger effect; strong numbers were not always called active. Heat shock cognate 71 kDa protein (Homo sapiens);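 active means displacement above 50% without optical interference and an IC50 on retest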;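 further: ATPase domain with a fluorescein-tagged ATP probe; 0% = vehicle and 100% = excess ADP; read after one hour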
Active calls of the source: *; i = inactive; / = not tested or not shown. Compounds as they come (roughly 0.87% active in at least one column).

mol	WNV NS2B-NS3 inh	MT1-MMP promoter	Hsc70 ATP site
Cc1cc(C)nc(NC(=O)c2cccc(Cl)c2)n1	-0.6	i	-5.2%
NC(=O)C1CCN(c2ncnc3c(-c4ccccc4)nsc23)CC1	0.34	i	3.6%
CC(C)(C)c1cc(NC(=O)COC(=O)C2CC2)n(-c2ccccc2)n1	0.08	i	3.6%
Cc1ccc(S(=O)(=O)n2cnc3ccccc32)cc1	/	i	-6.6%
Cc1nc(SCC(O)CCl)c([N+](=O)[O-])[nH]1 (centres undefined)	/	i	-1.6%
COc1ccc(-n2nc3c(c2NC(=O)c2cc(Br)ccc2Cl)CS(=O)C3)cc1 (centres undefined)	-0.32	i	2.3%
COCCN1C(=O)c2ccccc2C(C(=O)NCc2ccco2)C1c1c[nH]c2ccccc12 (centres undefined)	-0.22	i	0.6%
Cc1ccc(C(=O)Nc2c(C(=O)NCc3ccco3)cnn2-c2ccccc2)cc1	0.08	i	-2.0%
Cc1ccc2c(c1)NC(=O)C(CC(=O)NCCCN1CCN(c3cc(Cl)ccc3C)CC1)O2 (centres undefined)	0.46	i	-2.3%
CC1(C)NC(=O)N(c2ccccc2Cl)C1(C)NO (centres undefined)	0.43	i	2.2%
COc1ccccc1NC(=O)C1C2CCCCC21 (centres undefined)	0.45	i	-3.6%
CN(CC(=O)N1CCN(c2cccc(Cl)c2)CC1)S(=O)(=O)c1cnc[nH]1	/	i	2.4%
CNC(=O)C1CC(=O)N(c2ccc(C)cc2)C1 (centres undefined)	0.38	i	-3.7%
CC(Oc1ccc(Br)cc1)C(=O)N1CCc2ccccc21 (centres undefined)	0.29	i	-3.8%
O=C(CNCC1CCCO1)Nc1ccccc1N1CCOCC1 (centres undefined)	0.48	i	-2.1%
Cn1c(CNC(=O)c2ccccc2)nnc1SCC(=O)N1CCN(c2ccccc2)CC1	/	i	4.2%
CC(C)(C)OC(=O)N1CCNc2ccccc2C1	-0.73	i	4.0%
Cc1ccc(-c2nnn(C(C)C(=O)N3c4ccccc4CCc4ccccc43)n2)cc1 (centres undefined)	/	i	6.0%
CC(C)CNC(=O)c1cc(-c2ccc(Br)cc2)on1	0.88	i	-0.4%
COc1ccc(CCNC(=O)C2CCN(C(=O)NC3CCCCC3)CC2)cc1	/	i	0.6%
CCOc1ccccc1NS(=O)(=O)c1c(C)noc1C	-0.8	i	-3.9%
CCCCn1c(=S)[nH]c2ncccc2c1=O	-1.4	i	-5.9%
O=c1cc[nH]c2cccc(Cc3ccccc3)c12	-0.51	i	-3.7%
CC(=O)Nc1nc(COc2ccccc2)cs1	0.18	i	7.7%
O=C(Cc1c(O)c2ccccc2[nH]c1=O)OC1CCCCC1	-1.12	i	-0.6%
Cc1nc2nc(-c3cccs3)cn2nc1C	-0.22	i	49.2%
CCn1c(O)c(C=NCCN2CCOCC2)sc1=S	-4.55*	i	-4.8%
CC(NC(=O)c1ccccc1F)C(=O)O (centres undefined)	/	i	-4.2%
COCCn1c(SCC(=O)N(C(C)C)C(C)C)nnc1-c1cc2ccccc2cc1O	0.53	i	-4.0%
Cc1cccc(S(=O)(=O)C(C#N)c2nc3ccccc3nc2N2CC(C)OC(C)C2)c1 (centres undefined)	1.09	i	-0.9%
Cc1ccc(S(=O)(=O)N(CC(O)CN2C(=O)NC(C)(C)C2=O)c2ccccc2)cc1 (centres undefined)	/	i	2.6%
CCOc1ccccc1N1CCN(Cc2ccco2)CC1	/	i	-0.4%
COc1cccc(-n2c(SCC(=O)N3CCCC3)nc3c([nH]c4ccccc43)c2=O)c1	-0.62	i	1.5%
Cc1ccc2cc(CN(Cc3ccco3)S(=O)(=O)c3c(C)ccc4nsnc34)c(=O)[nH]c2c1	-1.46	i	-1.7%
COc1cccc(N(C(=O)Cn2nnc(-c3cccs3)n2)C(C(=O)NC(C)C)c2ccc(C)o2)c1 (centres undefined)	/	i	-1.1%
CSc1nc2nc3c(c(=O)n2[nH]1)CN(Cc1ccccc1)CC3	0.4	i	-1.8%
COc1cc(S(=O)(=O)NCC2CCCO2)ccc1Br (centres undefined)	/	i	1.7%
CCOc1ccc(OCC)c(NC(=O)CN(C)S(=O)(=O)c2cnc[nH]2)c1	0.1	i	10.1%
COc1ccc(/C(C)=C2\SC(=S)N(CCC(=O)O)C2=O)cc1	/	i	-1.5%
CC1CCN(C(=O)Cc2nn(C)c(=O)c3ccccc23)CC1	0.73	i	-4.3%
CCC(C)c1ccccc1NC(=O)c1cccnc1 (centres undefined)	0.79	i	-8.0%
COc1ccccc1NCCC#N	/	i	-0.2%
CC1=CC(C)(C)NC(=S)N1c1ccc(C)cc1	/	i	2.0%
Cc1onc(-c2ccccc2Cl)c1C(=O)NCc1nc(-c2ccccc2)no1	0.0093	i	-3.1%
CCOC(=O)N1CCC(NC(=O)CN2C(=O)CSc3nc(C)cc(C)c32)CC1	-0.14	i	2.2%
COc1ccc(C(C)C)cc1S(=O)(=O)NCc1ccccn1	3.05	i	-2.6%
COc1ccc(C(=O)c2cnc(C(C)C)n2C)cc1	1.79	i	1.6%
Cc1cc(C(=O)Nc2cccc(C(=O)O)c2)oc1C	-0.93	0.82µM*	-0.3%
C=CCn1c(=N)c(C(=O)OCC)cc2c(=O)n3cccc(C)c3nc21	0.28	i	-8.4%
CCOc1ccccc1NC1c2ccccc2C(=O)N1c1cccnc1 (centres undefined)	-0.03	i	-1.5%
CC(NC(=O)c1ccncc1)C(c1cccs1)N1CCOCC1 (centres undefined)	-0.71	i	-0.3%
Cc1c(CCC#N)c(N2CCN(C3CCCCC3)CC2)n2c(nc3ccccc32)c1C#N	-1.08	i	-48.4%
CC1CCN(c2nc(-c3ccccc3)cc(C(F)(F)F)n2)CC1	-0.67	i	1.9%
COc1ccc2c(C)cc(SCC(=O)N3CCOCC3)nc2c1	0.18	i	-23.6%
COc1ccc(S(=O)(=O)N2CCN(c3c(C)cccc3C)CC2)cc1OC	-0.78	i	1.6%
CCOC(=O)c1ccc(N=C2NC(=O)CS2)cc1	0.22	i	-15.8%
CC1=C(C(=O)N2CCN(C(=O)c3ccco3)CC2)C2(CCC(C)CC2)OC1=O (centres undefined)	0.08	i	0.1%
CCOc1ccc(N2C(N)=NC(N)=NC2(C)C)cc1	1.34	i	-2.2%
Cn1cccc1Cc1nnc(SCC(=O)NCc2ccco2)n1-c1ccc(F)cc1	-1.21	i	-10.1%
COCCNC(=O)CCSCc1ccccc1F	-1.38	i	3.8%

(further entries)
mol	WNV NS2B-NS3 inh	MT1-MMP promoter	Hsc70 ATP site
CCCCN1CCc2c([nH]c3c(C)cccc23)C1=O	-0.31	i	0.1%
Cc1ccc(C)c(/C(O)=C2\C(=O)C(=O)N(CCCN(C)C)C2c2cccnc2)c1 (centres undefined)	-0.2	i	-28.4%
CCC(C)NC(=O)Cn1c(=O)n(-c2ccccc2)c(=O)c2ccc(C(=O)NCc3ccco3)cc21 (centres undefined)	-1.25	i	2.9%
COc1ccc(CC2S/C(=C(\C#N)C(=O)NCc3ccco3)N(c3ccc(C)cc3)C2=O)cc1 (centres undefined)	0.64	i	-0.1%
CNS(=O)(=O)c1cccc(C(=O)OCc2cc(Cl)cc3c2OCOC3)c1	-1.59	i	-2.9%
Cc1cc(SCC#N)n2nc(C)c(-c3ccc(Cl)cc3)c2n1	/	i	-2.2%
O=C(CSc1nnc(CCCO)n1-c1ccccc1)NCCc1ccccc1	-0.26	i	-0.3%
CCOc1ccccc1N(CC(=O)Nc1ccccc1C(=O)O)S(C)(=O)=O	-0.27	i	-1.1%
O=C(COC(=O)c1cccnc1)Nc1cccc(Cl)c1	-1.19	i	-6.5%
CCN(CC)CCNC(=O)CCCNC(=O)Cn1cnc2sc(C)c(C)c2c1=O	0.68	i	-2.6%
Cn1c(SCC(=O)NCc2cccs2)nnc1-c1ccc(S(=O)(=O)N2CCCC2)cc1	-0.77	i	1.8%
CCC(C)NC(=O)CS(=O)(=O)Cc1nc(-c2cccc(OC)c2)oc1C (centres undefined)	0.4	i	-0.3%
Cn1c(=O)n(Cc2ccccc2)c(=O)c2c1nc1n2CCCN1C1CCCCC1	-0.01	i	-6.7%
Clc1ccc(Nc2ncnc3c2cnn3-c2ccccc2)cc1	-0.4	i	4.2%
COc1ccccc1-n1cc(C(=O)NCC(=O)N2CCN(c3ccccc3)CC2)c2ccccc2c1=O	-1.67	i	0.0%
Cc1cccc(Nc2ncc3c(n2)CC(c2ccco2)CC3=O)c1 (centres undefined)	-1.23	i	3.4%
O=C(Cn1cnc2c(oc3ccccc32)c1=O)NCCc1ccccc1	-2.25	i	-3.0%
CC(C)(C)N(Cc1ccccc1)C(=O)CSc1nc2ccccc2c(=O)[nH]1	/	i	-2.2%
Cn1c(=O)oc2cc(S(=O)(=O)NCCN3CCc4ccccc4C3)ccc21	-0.65	i	3.8%
C=CCOc1ccc(CNc2nn[nH]n2)cc1	0.28	i	-5.6%
CCn1nc(CCC(=O)O)c2ccccc2c1=O	/	i	0.7%
COc1cccc(-n2c(SCC(N)=O)nc3c([nH]c4ccccc43)c2=O)c1	-0.67	i	0.6%
COC(=O)c1nc2n(n1)C(c1cc(OC)ccc1OC)C(C(=O)OC1CCCCC1)=C(C)N2 (centres undefined)	1.32	i	-2.2%
CC(C)c1c(O)nc(SCCN2CCOCC2)[nH]c1=O	/	i	0.2%
O=c1c2c(ncn1CCO)nc1n2CCC1	/	i	1.7%
O=C(Nc1ccc(OC(=O)c2ccco2)cc1)c1ccco1	0.25	i	1.9%
COc1c2c(nc3ccccc13)OC(C(C)(O)COC(C)=O)C2 (centres undefined)	0.9	i	-5.5%
CCN1CCCC1Cn1cnc2c([nH]c3cccc(Cl)c32)c1=O (centres undefined)	-0.36	i	-3.5%
COC(=O)COc1ccccc1C(N)=O	/	i	-3.1%
C=CCn1c(NCCO)nc2c1c(=O)n(C)c(=O)n2C	-1.28	i	0.5%
Cc1ccc2c(c1)c1c(n2CC(O)Cn2c(C)nc3ccccc32)C(=O)CCC1 (centres undefined)	-1.49	i	13.0%
Cc1ccc(NC(=O)CCN2C(=O)CSC2=O)c(C)c1	/	i	-2.5%
CCOC(=O)c1ccc(CNC(=O)Cn2nnc(-c3ccc(C)cc3)n2)o1	0.73	i	-0.7%
COC(=O)CCN(C1CCCCC1)S(=O)(=O)c1ccc(S(=O)(=O)NC2CCCCC2)cc1	/	i	2.4%
CCC(CC)NCc1ccc(OC)cc1OC	0.07	i	0.9%
CCOCCn1c(N2CCN(c3ccc(OC)cc3)CC2)nc2c1c(=O)[nH]c(=O)n2C	0.44	i	2.2%
Cc1cc(=O)[nH]c2c1c(C)nn2C1CCCCC1	/	i	1.3%
COc1ccccc1CNC(=O)C1CCN(S(=O)(=O)N2CCCCC2)CC1	0.13	i	-3.5%
CCc1c(C(=O)NCc2cnn(C)c2)csc1C	-0.72	i	-0.2%
COc1cccc(/C(O)=C2\C(=O)C(=O)N(c3ccccn3)C2c2cccc(OC)c2OC)c1 (centres undefined)	/	i	1.6%
C=CCNC(=O)c1ccc(C)c(Br)c1	0.37	i	0.3%
CC(=O)c1cccc(-n2nnnc2SCC(=O)Nc2ccccc2N2CCCCC2)c1	-0.87	i	1.2%
Cc1ccccc1OCCn1cnc2c(N)ncnc21	/	i	-1.5%
CCCNC(=O)N1CCN(S(=O)(=O)c2ccc(C)cc2)CC1	0.34	i	-1.3%
CCc1nnc(N2C(=O)c3cccc4cccc(c34)C2=O)s1	/	i	-3.4%
CCCOc1ccc2oc(=O)c3c(c2c1)CCCN3C(=O)CN1CCc2ccccc2C1	0.65	i	2.6%
COc1ccc2nc(N3CCCC3)c(C#N)cc2c1	0.5	i	78.2%
Cc1oc2cc3c(C(=O)N4CCCCC4)c(C)oc3cc2c1C(=O)N1CCCCC1	0.61	i	-5.2%
CCN(CC)C(=O)CN1CCN(c2ccccc2F)CC1	-0.47	i	9.0%
COc1ccc(S(=O)(=O)Nc2cc(C)on2)cc1OC	-0.1	i	-3.1%
CCOCCCN(C(=O)Nc1ccc(CC)cc1)C1CCN(C(C)=O)CC1	1.51	i	-4.0%

Single records (already shown). Screens in order: WNV NS2B-NS3 inh | MT1-MMP promoter | Hsc70 ATP site
`O=C(Cc1c(O)c2ccccc2[nH]c1=O)OC1CCCCC1` in the list: -1.12 | i | -0.6%
`CCN(CC)C(=O)CN1CCN(c2ccccc2F)CC1` in the list: -0.47 | i | 9.0%
`Cn1c(=O)oc2cc(S(=O)(=O)NCCN3CCc4ccccc4C3)ccc21` in the list: -0.65 | i | 3.8%
`CSc1nc2nc3c(c(=O)n2[nH]1)CN(Cc1ccccc1)CC3` in the list: 0.4 | i | -1.8%
`O=c1cc[nH]c2cccc(Cc3ccccc3)c12` in the list: -0.51 | i | -3.7%
